# Screens: PubChem BioAssay, National Center for Advancing Translational Sciences (NCATS)
# Marburg entry inh: Marburg virus entry inhibition. Marburg virus pseudotyped entry inhibition, cell reporter; control for the full effect not named in the record; about a third of the inactives were read at about 46 µM. Potency, µM (series often up to 37.8 µM), for the others: at the highest dose activity change, negative = inhibition, actives largely listed as inhibitors. 1.8% of 300,000 active. AID 540276; active = well fitted inhibition curve with a large enough effect; inconclusive = small, poorly fitted or top-dose-only effect, or effect the other way; inactive = flat fitted curve, though single readings scatter; tested in HEK293 cells; about a fifth of its hits are not listed in these tables; note: % is set by controls: 0 for no effect and ±100 for the full control effect; luciferase read-out
# Cruzain noTriton: inhibitors of Trypanosoma cruzi cruzain without detergent | P25779 | purified cruzain, Z-FR-AMC fluorescence, no detergent | Potency, µM, inactives show max response, negative = inhibition, hits mostly inhibitors | 2.3% of 200,000 active | AID 1476;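 note: plate controls were enzyme without inhibitor for no effect and buffer without enzyme for full effect; nearly all actives have a fitted effect of over 40% in size; top concentration of the series not given in the record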
# Target sequence (P25779 123-467 limits assumed): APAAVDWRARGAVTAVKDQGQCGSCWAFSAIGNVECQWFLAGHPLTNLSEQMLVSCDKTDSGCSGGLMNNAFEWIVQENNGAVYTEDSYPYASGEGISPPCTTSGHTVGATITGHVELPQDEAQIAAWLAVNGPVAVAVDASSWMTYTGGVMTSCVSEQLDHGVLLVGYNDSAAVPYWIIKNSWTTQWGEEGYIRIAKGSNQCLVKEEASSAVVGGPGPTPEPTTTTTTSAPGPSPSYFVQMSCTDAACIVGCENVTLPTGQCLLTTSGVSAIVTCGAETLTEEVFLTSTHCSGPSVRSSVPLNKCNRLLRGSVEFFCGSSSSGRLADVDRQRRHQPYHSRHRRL
#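 Detergent-free condition (0.00005% Triton X-100) in acetate buffer pH 5.5 with DTT. 1.5 nM enzyme and compound were pre-mixed 15 min, then 2 uM Z-FR-AMC substrate added; reaction progress from fluorescence change between first and third reads (60 s).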
# SARS PLP yeast: SARS-CoV PLP inhibition in yeast; S. cerevisiae expressing SARS-CoV PLpro, growth rescue; control for the full effect not named in the record; Potency, µM (doses to about 32.9 µM), inactives show top-dose activity, positive = growth rescue; 0.19% of 330,000 active; AID 485353; active means well fitted rising curve with a large enough effect; inconclusive means small, poorly fitted or top-dose-only effect; inactive means no such curve, though single readings can be large or run the other way; note: 0% is about no effect; nearly all actives have a fitted effect of over 55% in size; growth read by luminescence after 48 h
# StopGo reporter: FMDV 2A StopGo reporter, luciferase signal; human cells with a luciferase reporter of 2A StopGo recoding; control for the full effect not named in the record; Potency, µM (doses to about 57.9 µM), inactives show at the top dose signal change, negative = less light; 1.2% of 410,000 active; AID 1159524; active = well fitted falling curve with a large enough effect; inconclusive = small, poorly fitted or top-dose-only effect; inactive = no such curve, though single readings can be large or run the other way; tested in HEK293T cells; note: % is set by controls: 0 for no effect and ±100 for the full control effect; nearly all actives have a fitted effect of over 45% in size; luciferase light after 4 h
# NS1 function inh: inhibitors of influenza NS1 protein function. S. cerevisiae slowed by influenza A NS1, growth recovery by OD600. Potency, µM (highest dose often 46.1 µM), inactives show at the top dose activity, positive = more growth. 0.4% of 270,000 active. AID 2326; active means well fitted rising curve with a large enough effect; inconclusive means small, poorly fitted or top-dose-only effect; inactive means no such curve, though single readings can be large or run the other way; note: nearly all actives have a fitted effect of over 50% in size
#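 A cell-based growth assay was used: compounds that relieve NS1-induced slow growth of budding yeast raise OD600. Assay medium was yeast nitrogen base with ammonium sulphate and -URA supplement, pH 6.0, with 2% galactose.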
# RE007 growth inh: less growth of the S. pombe RE007 Vpr strain; Potency, µM (doses to about 92.2 µM), inactives show top-dose activity change, negative = less growth; S. pombe RE007 Vpr strain, BacTiter-Glo ATP luminescence, 24 h; control for the full effect not named in the record; 0.21% of 360,000 active; AID 651644; active = well fitted falling curve with a large enough effect; inconclusive = small, poorly fitted or top-dose-only effect; inactive = no such curve, though single readings can be large or run the other way;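 note: % is set by controls: 0 for no effect and ±100 for the full control effect; nearly all actives have a fitted effect of over 50% in size; the assay follows cell death caused by Vpr and the record does not say whether a fall means rescue or toxicity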
#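 Fission yeast strain RE007, carrying one chromosomally integrated HIV-1 vpr copy, was seeded at OD 0.01 in PMG+AL medium with 23 nL pinned compound. After 24 h at 30 °C and 99% humidity, viability was read by BacTiter-Glo luminescence.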
# Cruzain Triton: cruzain (T. cruzi) inhibition with detergent | P25779 | purified cruzain, Z-FR-AMC fluorescence, 0.01% Triton | Potency, µM, for inactives: max response, negative = inhibition, hits mostly inhibitors | 0.43% of 200,000 active | AID 1478;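 note: plate controls were neutral wells for no effect and buffer without enzyme for full effect; nearly all actives have a fitted effect of over 40% in size; top concentration of the series not given in the record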
#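 Enzyme 1.5 nM, Z-FR-AMC 2 uM, NaOAc 100 mM pH 5.5, DTT 5 mM, Triton X-100 0.01%; 15 min RT compound preincubation; kinetic ex360/em450, 60 s delta.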
# Lassa entry inh: blocks Lassa virus binding to or entry into cells | Lassa virus pseudotype entry inhibition, cell reporter; control for the full effect not named in the record | Potency, µM (top dose mostly 37.9 µM), for inactives: at the highest dose activity change, negative = inhibition, most hits filed as inhibitors | 1.2% of 300,000 active; active means well fitted inhibition curve with a large enough effect; inconclusive means small, poorly fitted or top-dose-only effect, or effect the other way; inactive means flat fitted curve, though single readings scatter; tested in HEK293 cells; note: % is set by controls: 0 for no effect and ±100 for the full control effect; nearly all actives have a fitted effect of over 50% in size; luciferase read-out
# * hit, by the source's call; ? = inconclusive; / = no result given; & = joins results of further samples; [ ] = remark or other dose. Unless noted, calls come from the whole dose curve; as a rule, active = well fitted curve in the direction sought with a large enough effect; inconclusive = small, poorly fitted or top-dose-only effect, or another doubt; inactive = no such curve, though single readings can be large; an effect the other way counts as inactive or inconclusive. Potency is the fitted concentration of half-maximal effect. This is a random part of the collection. Share with any hit: about 4.6%.
# Results follow in this order: Marburg entry inh | Cruzain noTriton | SARS PLP yeast | StopGo reporter | NS1 function inh | RE007 growth inh | Cruzain Triton | Lassa entry inh
O=C(OC(C(=O)Nc1ccc(Cl)c(C(F)(F)F)c1)c1ccccc1)C1=COCCO1 (stereo not drawn)
    2% | 4% | -3% | -11% | ? | 9% | -10% | -2%
CCN(CC(=O)NCc1ccc(F)cc1)C(=O)/C=C/c1ccc(OC)c(S(=O)(=O)NC(C)C)c1
    ? | / | -1% | 38%[activator] | -5% | -12% | / | ?
Fc1ccc(-c2noc3ncnc(NCCCN4CCN(c5ccccc5)CC4)c23)cc1
    / | 6% | / | -29% | / | / | -0.3% | 8%[46.1 µM]
CCCC(=O)N(CCc1ccccc1)Cc1nc2ccccc2c(=O)[nH]1
    -4% | 2% | -1% | ? | -10% | -9% | 2.1% | ?
O=C(COC(=O)c1ccccc1C(=O)N1CCN(c2ccccc2)CC1)Nc1ccccc1
    ? | / | -3% | ? | -2% | 1% | / | -30%[46.1 µM]
CC(C)CC(=O)NCC(c1ccc2c(c1)OCO2)N1CCN(c2ccccc2)CC1 (stereo not drawn)
    / | -7% | / | -16% | / | / | 0.0% | 9%[46.1 µM]
COc1ccc(C(=O)NC(CC(=O)O)c2cc([N+](=O)[O-])ccc2Cl)c(SC)c1 (stereo not drawn)
    9%[46.1 µM] | / | -7% | 6% | / | 37% | / | -4%
COc1cc(OC)c(NC(=O)Cn2cnc3sc(C)c(S(=O)(=O)N4CCOCC4)c3c2=O)cc1Cl
    9%[46.1 µM] | / | 0% | -5% | -16% | 7% | / | 7%
C=CCNc1nc(N(c2ccccc2)c2ccccc2)nc(-n2ccnc2)n1
    ? | -1% | -4% | -10% | -4% | 12%[3.69 µM] | 3.7% | -1%
COc1cc(NC(=O)CN2C(=O)C(c3ccc(C)cc3)=NC23CCCCC3)cc(OC)c1
    ? | -5% | / | -19% | / | / | -7.7% | -7%[46.1 µM]
Cc1nnc(SCC(=O)c2c(N)n(C3CC3)c(=O)[nH]c2=O)n1C
    3%[46.1 µM] | / | -1% | 2% | / | 7% | / | 1%[46.1 µM]
Cc1ccc2c(c1)N(S(=O)(=O)c1cc(-c3onc(C)c3C)ccc1C)CCO2
    14%&14%[46.1 µM] | -19% | -6% | ? | 2% | 10% | -3.1% | ?
O=S(=O)(NCc1ccco1)c1ccc(Cl)cc1Cl
    -18%[46.1 µM] | / | 3% | 16% | 14% | 7% | / | 4%[46.1 µM]
CCOC(=O)c1cc(S(=O)(=O)NC2CCC(C)CC2)cn1C (stereo not drawn)
    ? | / | 0% | 29% | -8% | -5% | / | ?
Cc1cccc(NC(=O)c2cc(CN3CCOCC3)on2)c1C
    / | 13% | / | -14% | / | / | -0.7% | 36%[46.1 µM]
O=C(N/N=C/c1cccc(O)c1)c1ccc(-n2cnnn2)cc1
    ? | / | 0% | -8% | / | -10% | / | 19%
Cc1ccc(C)c(N2CCN(C(=O)CCC(=O)Nc3nnc(CC(C)C)s3)CC2)c1
    20%[46.1 µM] | / | 19% | -10% | 5% | -6% | / | 15%[46.1 µM]
Cc1ccc(OCC(=O)N(Cc2cccc(Cl)c2)C2CCS(=O)(=O)C2)cc1C (stereo not drawn)
    / | / | -1% | ? | 7% | 3% | / | /
Cc1cc(NC(=O)CSc2nc3ccccc3c(=O)n2CCCC(=O)NCc2ccccc2)n[nH]1
    -3% | -1% | 4% | 14% | -1% | 3% | 1.9% | 11%
FC(F)(F)c1cccc(C2NCc3ccccc3-n3cccc32)c1 (stereo not drawn)
    ? | / | -2% | -18% | 5% | 0% | / | 11µM*
CC(C)n1cc(CN2CCC(C(=O)Nc3cccc(-c4cscn4)c3)CC2)cn1
    / | / | -3% | -24% | -2% | -7% | / | /
COc1ccc(CCNc2ncnc3c2c(C)c(C)n3CCO)cc1OC
    / | / | 1% | ? | 2% | ? | / | /
Cc1ccc2nc(NC(=O)CSc3cc(C)[nH]c(=O)n3)sc2c1
    / | 3% | / | 36%[activator] | / | / | -5.6% | 19%[46.1 µM]
CCOC(=O)c1c(CN2CCN(C)CC2)oc2ccc(OC)cc12
    12% | -9% | 1% | 32%[activator] | -1% | -1% | -3.4% | -1%
CCOCCn1c(N2CCN(c3ccccc3)CC2)nc2c1c(=O)[nH]c(=O)n2C
    4%[46.1 µM] | / | 1% | -4% | -4% | 6% | / | ?
CC(=O)Nc1cc2nc(C)n(Cc3ccccc3)c2nc1C
    -10%[46.1 µM] | / | -2% | -6% | 5% | 0% | / | -12%[46.1 µM]
Cc1ccc(Sc2ccc(C(=O)N3CCOCC3)cc2[N+](=O)[O-])cc1
    / | / | -1% | -22% | -6% | -10% | / | /
CCN1CCN(c2cc(C)c3cc(NC(=S)N4CCN(c5ccc(F)cc5)CC4)ccc3n2)CC1
    -11%[46.1 µM] | / | 0% | 10% | -3% | -15% | / | 4%
Cc1ccc(S(=O)(=O)N2CCN(CCOc3ccccc3)CC2)cc1
    -22% | / | 8% | -28% | / | 9% | / | -4%[46.1 µM]
Cc1cc(C(=O)COc2ccccc2C(N)=O)c(C)n1CC1CCCO1 (stereo not drawn)
    ? | / | -6% | 28µM* | -2% | 0% | / | -13%

# Brought forward from above: 3 entries; new compounds follow.
Molecule,Marburg entry inh,Cruzain noTriton,SARS PLP yeast,StopGo reporter,NS1 function inh,RE007 growth inh,Cruzain Triton,Lassa entry inh
CCN1CCN(c2cc(C)c3cc(NC(=S)N4CCN(c5ccc(F)cc5)CC4)ccc3n2)CC1,-11%[46.1 µM],/,0%,10%,-3%,-15%,/,4%
Cc1ccc(S(=O)(=O)N2CCN(CCOc3ccccc3)CC2)cc1,-22%,/,8%,-28%,/,9%,/,-4%[46.1 µM]
Cc1cc(C(=O)COc2ccccc2C(N)=O)c(C)n1CC1CCCO1 (stereo not drawn),?,/,-6%,28µM*,-2%,0%,/,-13%
O=C(NCCOc1ccccc1)C1CCCCC1,18%[46.1 µM],/,10%,29%,/,-7%,/,2%[46.1 µM]
CCCOc1ccc(-c2nc(N)n[nH]2)cc1,20%,4%,-8%,69%[activator],-10%,-2%,4.9%,?
Cc1cccc(C(=O)O/N=C2/CC3CCC2(C)C3(C)C)c1 (stereo not drawn),-1%,-3%,-89%,/,-31%,-20%,-6.0%,0%
COc1cccc(-n2c(O)c(C=NCCN3CCNCC3)c(=O)[nH]c2=S)c1,10%[46.1 µM],/,0%,18%,7%,8%,/,-1%[46.1 µM]
CCCc1ccc(-c2cc(C(=O)NN3CCOCC3)c3ccccc3n2)cc1,?,?,2%,32%[activator],-5%,6%,-6.2%,3%
COc1ccc(NC(=O)CN(C)C(=O)CCCc2nc3ccccc3s2)cc1,?,/,1%,25%,/,2%,/,-2%
Cc1ccc(CNS(=O)(=O)c2ccc3c(c2)NC(=O)CS3)cc1,/,/,-9%,19%,7%,-11%,/,/
CCC(NC(=O)c1ccc([N+](=O)[O-])cc1[N+](=O)[O-])c1ccccc1 (stereo not drawn),-4%,-4%,5%,-5%,-5%,27%,1.7%,?
O=c1nc(/C=C/c2cc([N+](=O)[O-])ccc2Cl)cc(C(F)(F)F)[nH]1,-30%,7%,14%,0%,3%,12%,-1.5%,-17%
O=C(O)c1cc(-c2ccc(/C=C3/SC(=S)N(Cc4ccccc4)C3=O)o2)ccc1Cl,10%[46.1 µM],/,3%,3%,/,3%,/,12%
Cn1c(=O)[nH]c(=O)c2c1nc([N+](=O)[O-])n2Cc1ccccc1,?,/,-2%,7.9µM*,-5%,6%,/,?
Cc1nnc(SCC(=O)NCCN2C(=O)CSC2=O)n1-c1ccccc1,10%[46.1 µM],/,1%,-13%,/,-2%,/,-20%[46.1 µM]
O=C(COC(=O)/C=C/c1ccc(F)cc1)Nc1cccc(S(=O)(=O)N2CCCC2)c1,/,/,0%,5%,5%,15%,/,/
Cc1ccc(NC(=O)COC(=O)CCOc2ccccc2C)cc1,-6%[46.1 µM],/,-1%,-16%,/,-10%,/,2%[46.1 µM]
COc1ccc2cc(CCNS(=O)(=O)c3ccc(NC(C)=O)cc3)c(=O)[nH]c2c1,7%[46.1 µM],/,2%,-7%,-11%,5%,/,?
CC(C)(C)OC(=O)N/N=C/c1cc(N=Nc2ccccc2)ccc1O,?,8%,4%,?,-3%,2%,-9.2%,?
CC1CCc2nn(CC(=O)N3CCc4ccccc43)cc2C1 (stereo not drawn),/,-2%,6%,24%,-5%,16%,-1.9%,/
CCOc1ccc(NC(=O)CCS(=O)(=O)c2ccc(Br)s2)cc1,7%[46.1 µM],-10%,/,8%,/,/,-3.0%,?
COc1cc(OC)c(C2N(c3ccccn3)C(=O)C3CCCN32)cc1OC (stereo not drawn),?,-1%,0%,-3%,-2%,4%,-1.7%,20%
CCOc1c([N+](=O)[O-])cc2c(C)c(C(=O)N3CCN(C)CC3)oc2c1OCC,5%[46.1 µM],/,-2%,-2%,-3%,6%,/,5%[46.1 µM]
Cc1oc2ncnc(N3CCCCC3)c2c1C(=O)N1CCN(c2cccc(Cl)c2)CC1,/,-3%,/,?,/,/,0.4%,-17%[46.1 µM]
O=C(NCc1nc(-c2ccccc2)no1)c1cccs1,14%,8%,-1%,-1%,-81%,-5%,-0.1%,1%
